# Bioassay records (PubChem BioAssay)
# KCNQ2 inh = KCNQ2 potassium channel inhibitors, primary screen, cell-based, CHO-K1, FluxOR thallium flux, B-score (AID 2156) | 20 min; active compounds read low; only compounds with negative scores are shown here; some inactives read as strong as hits | B-score at 10 µM | 310,000 compounds, 1.1% hits;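 active means fluorescence ratio B-score at most minus 3 library SDs, with starting brightness B-score within 2 library SDs, cut at about -5.5 in these data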
# Target sequence (O88943 whole entry, looked up): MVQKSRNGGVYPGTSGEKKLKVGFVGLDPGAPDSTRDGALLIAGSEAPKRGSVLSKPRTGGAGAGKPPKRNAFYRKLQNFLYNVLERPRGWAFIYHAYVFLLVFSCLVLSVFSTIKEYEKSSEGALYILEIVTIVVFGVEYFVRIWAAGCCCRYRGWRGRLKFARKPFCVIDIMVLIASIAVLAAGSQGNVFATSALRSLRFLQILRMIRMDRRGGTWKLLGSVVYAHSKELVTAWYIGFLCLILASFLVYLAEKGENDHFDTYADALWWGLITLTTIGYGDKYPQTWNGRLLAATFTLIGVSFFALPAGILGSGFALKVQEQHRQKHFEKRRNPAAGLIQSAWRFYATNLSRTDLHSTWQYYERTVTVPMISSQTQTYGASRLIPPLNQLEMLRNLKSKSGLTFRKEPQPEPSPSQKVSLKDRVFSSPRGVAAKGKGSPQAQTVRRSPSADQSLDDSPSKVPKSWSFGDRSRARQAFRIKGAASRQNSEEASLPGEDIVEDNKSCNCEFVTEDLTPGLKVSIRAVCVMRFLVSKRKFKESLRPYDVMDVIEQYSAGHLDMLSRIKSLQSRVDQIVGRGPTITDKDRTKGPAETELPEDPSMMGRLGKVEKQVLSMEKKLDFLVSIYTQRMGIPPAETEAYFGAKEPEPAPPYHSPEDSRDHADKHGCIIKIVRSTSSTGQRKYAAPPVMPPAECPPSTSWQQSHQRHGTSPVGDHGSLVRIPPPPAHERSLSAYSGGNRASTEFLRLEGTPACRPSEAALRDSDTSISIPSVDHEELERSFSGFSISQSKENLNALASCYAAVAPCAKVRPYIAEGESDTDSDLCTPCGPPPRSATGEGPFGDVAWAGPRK
# KCNQ2 inh baseline = further read-out of KCNQ2 inh, marked with its call; B-score; measured here: initial fluorescence intensity artifact check;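 brightness before thallium and not channel activity; 0 = typical well and far values either way flag optical interference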
# Numbers without * were called inactive; i = inactive.
SMILES,KCNQ2 inh,KCNQ2 inh baseline
CC(=O)/C(=C/c1ccccc1)C(=O)Nc1ccccc1C,i,1.1
COc1ccc2[nH]cc(S(=O)(=O)c3ccc(C)cc3)c2c1,i,0.35
CC(=O)/C(C(=N)N1CCN(C(c2ccccc2)c2ccccc2)CC1)=C(\C)O,i,0.58
CCN(CC)C(=O)Oc1ccc(Br)c2ccccc12,i,-0.01
COc1ccccc1NC(=O)C(C)OC(=O)/C=C/c1ccc2ccccc2n1 (stereo not drawn),i,-0.91
Cc1ccc(NNC(=O)C2CCC2)cc1C,i,0.91
COc1ccccc1NC(=O)C1CCCN(S(=O)(=O)c2cccc3nsnc23)C1 (stereo not drawn),i,-0.06
N#Cc1ccc(C(=O)Nc2cc(S(=O)(=O)Nc3ccc(Cl)cc3)ccc2N2CCCCC2)cc1,i,1.3
COc1cc(NC(=O)C2CC(c3ccc(Cl)cc3)=NO2)cc(OC)c1OC (stereo not drawn),i,-0.37
Cc1cc(C(C)(C)C)oc1C(=O)N(CC(=O)NC1CCCC1)Cc1ccc(F)cc1,i,0.77
c1ccc(-c2nc(CSc3nnnn3-c3ccccc3)cs2)cc1,i,1.3
O=C1CCN(S(=O)(=O)c2ccccc2)N1,i,-0.01
Cc1ccc(C2CCN(C(=S)NC(C)(C)C)C2)cc1 (stereo not drawn),i,1.1
Cc1c(C(=O)NCc2nnc(-c3ccccc3)o2)oc2c(F)cccc12,i,0.34
CCN(CC)C(=O)Cn1cc(S(=O)(=O)CC(=O)Nc2cc(OC)ccc2OC)c2ccccc21,i,0.62
Cc1cc(OCC(=O)NC2CC2)c2c(C)cc(=O)oc2c1,i,-0.6
CN(C)CCn1c2c(c(SCC(=O)Nc3ccccc3)nc1=O)CCCC2,i,-0.03
CCc1ccc(N(CC(=O)NC2CCCC2)C(=O)CCC(=O)Nc2ccccn2)cc1,i,-0.01
Cc1ccc(OCC(=O)Nc2ccc(N3CCN(S(C)(=O)=O)CC3)cc2)cc1,i,4
CCCn1c(O)c(N=NC(=O)c2cccnc2)c2cc(Br)ccc21,i,-0.96

# Some of the entries so far, with tabs.
canonical_smiles	KCNQ2 inh	KCNQ2 inh baseline
Cc1ccc(NNC(=O)C2CCC2)cc1C	i	0.91
CC(=O)/C(=C/c1ccccc1)C(=O)Nc1ccccc1C	i	1.1

# The list goes on:
SMILES,KCNQ2 inh,KCNQ2 inh baseline
O=S(=O)(ON(c1ccccc1)S(=O)(=O)c1ccccc1)c1ccccc1,i,0.01
CC(C)NC(=O)CCNC(=O)c1ccc(F)cc1,i,0.88
CCOC(=O)CSC(C)C(=O)Nc1nnc(C(C)C)s1 (stereo not drawn),i,0.01
CCc1ccccc1-n1c(SCC(=O)N2CCCC2)nc2[nH]ncc2c1=O,i,0.77
COc1ccccc1CNC(=O)CSc1nn2c(=O)c(C(C)(C)C)nnc2s1,i,-0.28
COc1ccc(NC(=S)N(Cc2ccc(N(C)C)cc2)Cc2ccco2)cc1,i,-0.13
O=C(NC1CCCCCCC1)c1c(O)c2ccccc2[nH]c1=O,i,0.02
O=C(CNC1CCCCC1)Nc1cc(S(=O)(=O)N2CCOCC2)ccc1Cl,i,-0.69
Cc1ccc(NC(=O)N2CCOCC2)c(C)c1,i,2.2
Nc1cc(=O)[nH]c(SCC(=O)Nc2cc(S(=O)(=O)N3CCOCC3)ccc2Cl)n1,i,1.2
Cc1ccc(SCC(=O)NCCSC(C)(C)C)cc1,i,-1.5
N#Cc1ccc(S(=O)(=O)N2CCc3[nH]c4ccc(F)cc4c3C2)cc1,i,-0.72
CCc1ccccc1NC(=O)C1COc2ccccc2O1 (stereo not drawn),i,0.47
CC(=O)c1c(N2CCCCC2)nc(=S)n(-c2ccccc2)c1C,i,1.1
O=C(CC12CC3CC(C1)CC(CC(=O)N1CCCC1)(C3)C2)N1CCCC1,i,-1.4
COc1cccc(-c2nc(CS(=O)(=O)CC(=O)NCCc3cc(OC)ccc3OC)c(C)o2)c1,i,0.06
CC(C)OP(=O)(c1ccc(N(C)C)cc1)C(O)c1ccc(N(C)C)cc1 (stereo not drawn),i,0.07
CCn1c(=O)cc(OCC(=O)N(C)C2CCCCC2)c2ccccc21,i,1.1
Cc1cccc(Cn2ncc(Cl)c(Cl)c2=O)c1,i,-0.86
Cc1noc(C)c1COC(=O)c1ccccc1NC(=O)c1ccco1,i,0.12
COc1ccc(C)cc1NC(=O)CNCc1cccs1,i,-0.55
COc1ccc(NC(=O)CC2SC(=NCc3ccccc3OC)NC2=O)cc1 (stereo not drawn),i,1.2
CCN(CC)c1ccc(C=Nc2ccc(C)cc2C)c(O)c1,i,0.07
COc1ccc(S(=O)(=O)NN(C)c2ncc(C(F)(F)F)cc2Cl)cc1,i,-0.26
COc1ccc(CNC(=O)CC2(CC(=O)O)CCCCC2)cc1,i,0.32
Cc1ccccc1NC(=S)N(Cc1ccco1)C(C)c1cccs1 (stereo not drawn),i,2
COc1ccc(CCNC(=O)C2(c3ccccc3)CC2)cc1,i,0.26
CCCCOc1ccc(C(=O)N/C(=C\c2cccc([N+](=O)[O-])c2)C(=O)OC(C)C)cc1,-6*,-3.2*
Cc1cc(NC(=S)Nc2cccc3ccccc23)n[nH]1,i,-0.29
Cc1sc2ncn(CC(=O)NCCCC(=O)N3CCC(C)CC3)c(=O)c2c1C,i,0.53
CCNC(=O)C1=C(O)c2sccc2N(C)S1(=O)=O,i,1.5
CCOC(=O)/C(=N/Nc1ccccc1)Sc1nnc(CCc2ccccc2)n1-c1ccccc1,i,1.9
COc1cc2nc(N(CCCN(C)C)C(=O)c3ccc(C(=O)c4ccccc4)cc3)sc2cc1OC,i,0.02
Oc1ccccc1OCc1nc2ccccc2s1,i,2.4
N#Cc1ccc(Oc2ccc(/C=N/O)cn2)cc1,i,-0.39
Cc1ccc2c(c1)NC(=O)c1cccc([N+](=O)[O-])c1CO2,i,0.65
C#CCSc1nnc(-c2ccc(OC)cc2)o1,i,1
CCn1c(Cc2ccccc2)nnc1SCC(=O)N1CCCCC1,i,0.01
C/C(=N\NC(=O)C1CC1)c1ccc(C(C)(C)C)cc1,i,2.1
COc1ccc(OC)c(NC(=O)Cn2c(-c3ccc(Cl)cc3)noc2=O)c1,i,0.45
Nc1ccc(Nc2ccccc2N)cc1,i,1.6
Cc1ccc(NC(=O)c2cccc3c2C(=O)N(C2CCCCC2)C3)cc1,i,2.9
O=C(c1ccccc1-c1nc(-c2ccc(Cl)cc2)no1)N1CCCC1,i,-2.4
O=C(OCCN=C1NS(=O)(=O)c2ccccc21)c1cccc([N+](=O)[O-])c1,i,1.4
CCCOC(=O)c1ccc(NC(=O)c2ccccc2OC)cc1,i,0.93
NC(=O)c1cccnc1Oc1ccc(Cl)cc1Cl,i,0.07
COc1ccc(C)cc1S(=O)(=O)N(CC(=O)N1CCCC1)c1ccc(C)cc1,i,-1.8
CCCCCCCCS(=O)c1sc2nc(C)cc(C)c2c1N (stereo not drawn),i,-0.9
CC1(C)CC(NS(=O)(=O)c2cccc3ccccc23)CC(C)(C)N1,i,0.2
C=CCn1c(SCCC)nc(O)cc1=O,i,0.26
CCc1ccc(NC(=O)CSc2nnc(Cc3cccn3C)n2-c2ccc(F)cc2)cc1,i,0.71
COc1ccc(NC(=O)C(c2ccc(C)cc2)N(C)C(=O)Cc2cccs2)cc1 (stereo not drawn),i,-0.73
COC(=O)c1ccc(NC(=O)C(=O)N2CCN(C(=S)Nc3cccc(OC)c3)CC2)cc1,i,0.85
CCOC(=O)c1cccc(NC(=S)N2CCN(c3ncc4c(=O)c(C(=O)O)cn(CC)c4n3)CC2)c1,i,0.98
COc1ccc(OC)c(S(=O)(=O)n2cnc3cc(C)c(C)cc32)c1,i,2.2
Cc1cc2n(c(=O)c1C#N)CCCN2c1cccc(Cl)c1,i,0.66
Cc1ccnc(NC(=O)c2ccc(N3C(=O)CCC3=O)cc2)c1,i,-0.56
Cc1cc(C)c2oc(C(=O)N(Cc3ccccc3)c3ccccn3)cc(=O)c2c1,i,1.9
Cc1ccc2cc(CCNC(=O)c3ccc4c(c3)OCO4)c(=O)[nH]c2c1,i,0.14
CCOC(=O)c1ccc(-n2ccnc2)c(NC(=O)c2ccc(Cl)cc2)c1,i,-0.59

# Next section; the last 5 above are carried over.
SMILES,KCNQ2 inh,KCNQ2 inh baseline
Cc1cc2n(c(=O)c1C#N)CCCN2c1cccc(Cl)c1,i,0.66
Cc1ccnc(NC(=O)c2ccc(N3C(=O)CCC3=O)cc2)c1,i,-0.56
Cc1cc(C)c2oc(C(=O)N(Cc3ccccc3)c3ccccn3)cc(=O)c2c1,i,1.9
Cc1ccc2cc(CCNC(=O)c3ccc4c(c3)OCO4)c(=O)[nH]c2c1,i,0.14
CCOC(=O)c1ccc(-n2ccnc2)c(NC(=O)c2ccc(Cl)cc2)c1,i,-0.59
O=C(NCCN1CCOCC1)C(=O)NCC1OCCCN1S(=O)(=O)c1cc(F)ccc1F (stereo not drawn),i,0.17
COc1ccc(Cc2nnc(Nc3ccc(Cl)cc3)[nH]c2=O)cc1,i,1
COc1ccccc1C(=O)CC(=O)c1ccccc1,i,0.09
O=C(NCc1ccc(F)cc1)c1cnn2ccccc12,i,-2.2
COc1ccc(OCC(=O)Nc2ccc(S(=O)(=O)N3CCCCC3)cc2)cc1,i,-0.41
O=C(NCC(c1ccco1)N1CCc2ccccc21)c1ccccc1F (stereo not drawn),i,-0.14
C[C@@H]1CCC2[C@](C)(CO)[C@@H](O)CC[C@]2(C)[C@@]12CCC(CO)(CCO)O2 (stereo partly drawn),i,0.96
Cc1nc(NC(=O)CN2CCN(c3ccccc3F)CC2)sc1C(=O)N(C)C,i,0.25
COC(=O)/C(=C\C=C\c1ccccc1)NC(=O)c1ccccc1,i,-1.1
Cc1cc(OC(C)C(=O)NCc2ccncc2)c2c(C)cc(=O)oc2c1 (stereo not drawn),i,0.24
COc1ccccc1C(=O)NC(=S)Nc1ccc2[nH]c(=O)[nH]c2c1,i,0.72
Cc1cc2[nH]c(=O)c(=O)[nH]c2cc1S(=O)(=O)N1CCN(c2ccccc2F)CC1,i,-1
COc1ccc(CNC(=O)CSc2nnnn2-c2ccc(O)cc2)cc1,i,0.66
S=C(NNc1cccc(Cl)c1)NC1CCCCC1,i,0.21
Cc1ccc(NC(=O)C2OCCc3ccccc32)cc1 (stereo not drawn),i,-2
O=C1COc2ccc(C(=O)COC(=O)CCSc3ccccc3)cc2N1,i,0.32
CC1=CC(=C2N=C(c3ccccc3)OC2=O)C=C(C)O1,i,0.26
Cc1cc(C)nc(NS(=O)(=O)c2ccc(NC(=O)Cn3c(=O)oc4ccccc43)cc2)n1,i,-0.92
Cc1c(C)c2ccc(O[C@@H]3O[C@H](CO)[C@H](O)[C@H](O)[C@H]3O)c(C)c2oc1=O,i,2.8
CN1C=CC=C/C1=C1\SC(=S)N(C2CCCCC2)C1=O,i,0.07
Cc1ccc(-n2nc3c(=O)n(CCCC(=O)NCCc4ccccc4)nc(C)c3c2C)cc1,i,-0.55
CCOc1cc2c3c(c1)C1(C(=O)N3C(C)(C)C=C2C)C(C#N)=C(N)Oc2cc(O)ccc21 (stereo not drawn),i,-1.7
CC(C)(C)NC(=O)c1ccncc1,i,-0.28
Cc1ccc(-n2nc3c(c2NC(=O)C(C)C)CS(=O)(=O)C3)c(C)c1,i,0.46
O=C(NNS(=O)(=O)c1ccccc1)c1cnn(-c2ccccc2)c1-n1cccc1,i,1.1
Cn1c(SCC(=O)N2CCCCCC2)nc2c([nH]c3ccccc32)c1=O,i,1.2
CCOC(=O)c1cncc(O)c1,i,-0.07
Clc1ccccc1/C=N/N1CCN(Cc2ccccc2)CC1,i,0.74
O=C(CSC1=NS(=O)(=O)c2cc(F)ccc2N1)NCc1ccccc1,i,-1.1
COCC(=O)N(CCc1ccccc1)Cc1cc2cc(C)ccc2nc1Cl,i,0.16
Cc1cccc(Cc2c(C)nc3c(C(=O)N4CCN(Cc5ccc6c(c5)OCO6)CC4)cnn3c2C)c1,i,-0.43
CC1Cc2ccccc2N1C(=O)NC1CC(=O)N(c2ccc3c(c2)OCCO3)C1 (stereo not drawn),i,0.3
O=C(O)CCCCCNC(=O)OCC1c2ccccc2-c2ccccc21,i,1.5
COc1cc(/C=N\NC(=O)CC#N)ccc1OC/C=C/c1ccccc1,i,0.9
O=c1c2cnn(-c3ccccc3)c2ncn1Cc1cccnc1,i,0.35
Cc1ccc2cc(C)c3nnc(SCC(=O)Nc4nc5c(s4)CCCC5)n3c2c1C,i,-0.2
Cc1cc(=O)[nH]c2ccccc12,i,-0.1
NC(=O)c1cccc(CS(=O)(=O)c2ccc(Cl)cc2)c1,i,0.3
CCOc1c(Cl)cc(CNCc2ccncc2)cc1OC,i,0.28
Cc1cc(OCC(=O)Nc2cnn(CCCC(=O)O)c2)ccc1Cl,i,1

# Looked up by compound from the list above, 5 records:
SMILES,KCNQ2 inh,KCNQ2 inh baseline
COc1cc(/C=N\NC(=O)CC#N)ccc1OC/C=C/c1ccccc1,i,0.9
O=C(NNS(=O)(=O)c1ccccc1)c1cnn(-c2ccccc2)c1-n1cccc1,i,1.1
O=C(O)CCCCCNC(=O)OCC1c2ccccc2-c2ccccc21,i,1.5
CCOC(=O)c1cncc(O)c1,i,-0.07
Cc1ccc(-n2nc3c(c2NC(=O)C(C)C)CS(=O)(=O)C3)c(C)c1,i,0.46

# Next entries follow:
SMILES,KCNQ2 inh,KCNQ2 inh baseline
Nc1ccc(C(=O)c2cccs2)cn1,i,-0.87
O=C1/C(=C/c2cccc(Br)c2)SC(=S)N1CCC(=O)N(CCO)c1ccccc1,i,-1.1
O=C(CNc1cccc(S(=O)(=O)N2CCCC2)c1)Nc1cccc(Br)c1,i,-0.36
Cc1cc(-c2nnc(SCC(=O)Nc3ccccc3)n2C)no1,i,-1.3
O=C(Nc1ccc(Cl)cc1)Nc1ccc(N2CCCC2)c(S(=O)(=O)Nc2ccccc2Cl)c1,i,-0.97
CC(C)(C)c1ccccc1NC(=O)c1ccc(-n2cncn2)c([N+](=O)[O-])c1,i,2.2

# The list is partial. The share of hits here may be higher or lower than overall.
